RanGTP-Impb inh: inhibitors of RanGTP-importin-beta interaction, primary screen, biochemical, FRET, CFP-Ran, YFP-importin-beta, homogeneous. 300,000 compounds, 1.1% hits. inhibition, % (no concentration beside the values). AID 2216. cell-free CFP-Ran/YFP-importin-beta FRET ratio;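 active means most replicates above 15%; inconclusive means exactly half above 15%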;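 further: 0% = DMSO wells and 100% = Ran loaded with GDP instead of GTP; wells of about 40 µL received 100 nL stock; the first replicate is given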
Beta apoptosis: beta cell apoptosis inhibition | INS-1E cytokine-induced death, ATP luminescence, 48 h; percent of positive-control rescue, neutral wells zero | protection from apoptosis, % (concentration not given with the values) | 300,000 compounds, 0.8% hits;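 active means all replicates at 75% or more, or half of them and the mean; inconclusive means half reach 75% but not the mean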;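 further: 0% = cytokine-treated negative control wells and 100% = positive control rescue; higher means more ATP so stronger rescue from cytokine killing; wells of about 40 µL received 100 nL stock; the first replicate is given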
T cruzi inh: blocks replication of Trypanosoma cruzi | T. cruzi beta-gal in NIH3T3, luminescence, 90 h | inhibition, % (test concentration not listed) | 300,000 compounds, 1.4% hits | AID 1885;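 active means mean inhibition across valid replicates above about 55%, limit read from the data; inconclusive means mean below that limit but half or more replicates reach it; inactive means mean below it, under half of replicates reach it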;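 further: signal also drops with host cell toxicity which is not excluded here; 0% = plate median of DMSO wells and 100% = zero luminescence signal; higher percent means less beta-gal luminescence so fewer parasites; stock transfer was 50 nL into about 50 µL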
Calb FLC: affects C. albicans growth with fluconazole; C. albicans CaCi-2 (fluconazole-resistant clinical isolate) + fluconazole, Alamar Blue growth, 48 h; growth inhibition, % (test concentration not listed); 300,000 compounds, 0.57% hits; AID 1979;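 active means most replicates above 75%; inconclusive means exactly half above 75%; inactive means most below 75%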;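 further: all wells also contain fluconazole at 8 µg/ml as a sub-toxic cotreatment; 0% = median of DMSO wells and 100% = median of geldanamycin control wells; wells of about 8 µL received 7.5 nL stock; the first replicate is given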
LANA-H2B inh: blocks KSHV LANA binding to histone H2A/H2B | Q9QR71 | cell-free LANA-H2A/H2B peptide, fluorescence polarization | inhibition, % (no concentration beside the values) | 320,000 compounds, 0.6% hits; in the data active means inhibition mostly above about 10%, no sharp cut-off; inactive means mostly below about 6.7%;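 further: stock transfer was 7.5 nL into about 10 µL; 0% = median of vehicle wells and 100% = median of positive control wells; one replicate is shown; the record names a cut of 25% in any replicate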
Vif TR-FRET: HIV-1 Vif–A3G interaction blockers – biochemical, TR-FRET, GST-Vif 1-94, biotin-A3G peptide, dose response retest, primary screen (AID 1117319) | TR-FRET GST-Vif / biotin-A3G peptide binding; higher % means a stronger effect; test concentration not given here; strong numbers were not always called active | inhibition, %; hits with a dose series show IC50 in µM | 260,000 compounds, 0.57% hits;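 active means above the screen mean plus three standard deviations and confirmed in dose response; inconclusive means results disagree or hit not tested in dose response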;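 further: Vif residues 1-94 fused to GST binding biotinylated APOBEC3G peptide 110-148; 0% = full assay without inhibitor and 100% = GST in place of GST-Vif; retest series ran down from 100 µM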
AF4-AF9 inh: MLL-AF4/AF9 protein interaction inhibition. AID 651704. AlphaScreen, biotin-AF4 peptide binding to FLAG-AF9. inhibition, % at 10 µM. P42568. 350,000 compounds, 0.47% hits;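 active means every replicate reaching a set inhibition limit, whatever the replicate mean, cut at about 25% in these data; inconclusive means mean inhibition reaches that limit but some replicates miss it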;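 further: 0% = plate neutral control median and 100% = total signal loss; the record names both 10 and 1 µM as test concentration; the first replicate is given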
Target sequence (P42568 whole entry, looked up): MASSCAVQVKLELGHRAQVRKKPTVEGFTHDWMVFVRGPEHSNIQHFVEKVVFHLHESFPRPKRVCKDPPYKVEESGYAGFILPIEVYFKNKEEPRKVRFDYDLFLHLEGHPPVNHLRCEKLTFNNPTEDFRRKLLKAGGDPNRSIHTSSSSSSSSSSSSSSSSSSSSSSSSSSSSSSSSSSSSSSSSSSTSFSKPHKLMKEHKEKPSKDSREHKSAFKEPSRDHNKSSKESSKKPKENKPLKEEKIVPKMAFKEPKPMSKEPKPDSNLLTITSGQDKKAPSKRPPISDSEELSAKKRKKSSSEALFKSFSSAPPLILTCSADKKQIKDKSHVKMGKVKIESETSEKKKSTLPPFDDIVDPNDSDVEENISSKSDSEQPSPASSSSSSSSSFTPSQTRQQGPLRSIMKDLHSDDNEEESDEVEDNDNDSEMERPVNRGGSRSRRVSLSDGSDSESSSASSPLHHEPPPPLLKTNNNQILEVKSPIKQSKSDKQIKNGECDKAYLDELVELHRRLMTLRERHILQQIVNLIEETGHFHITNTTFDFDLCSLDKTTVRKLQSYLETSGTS
Bfl-1 A1 inh: inhibitors of the anti-apoptotic protein A1, read as caspase activation; MEF A1-2A-BIM cells, Caspase-Glo 3/7 luminescence, 3 h; percent of clofoctol response, vehicle zero; 330,000 compounds, 0.066% hits; caspase activation, % (no concentration beside the values); AID 2462;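 active means over half of replicate activation scores above 10%, or exactly half above 10 with the replicate mean above 10; inconclusive means replicate mean below 10 yet half the replicates above 10; inactive means over half of replicates below 10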;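 further: wells of about 30 µL received 50 nL stock; many hits fall short of the cut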
An asterisk follows results filed as active; ? = inconclusive; · = not tested or not shown.

Compound	RanGTP-Impb inh	Beta apoptosis	T cruzi inh	Calb FLC	LANA-H2B inh	Vif TR-FRET	AF4-AF9 inh	Bfl-1 A1 inh
COCCNC(=O)c1ccccc1NC(=O)CN(c1ccc2c(c1)OCO2)S(C)(=O)=O	-1.5	-2	0	5	-1.6	-1%	·	0.3
O=C(NCCN1CCOCC1)c1ccccc1-c1ccccc1	4.4	-2	4	-4	2.4	-6%	·	-0.5
NS(=O)(=O)c1ccc(NC(=O)COC(=O)c2cn(-c3ccccc3)nc2-c2ccc(F)cc2)cc1	-2.1	8	-20	-5	-2.1	-10%	·	0.0
N#Cc1ccccc1NC(=S)Nc1ccc(F)cc1	-4.1	-5	-27	4	1.1	·	-2.0	0.8
O=C(NCC1CCCO1)c1cccc(NS(=O)(=O)c2ccccc2)c1 (stereo not drawn)	0.2	1	-16	-2	-6.2	-7%	-2.1	0.1
CCOC(=O)[C@H]1[C@H]2COc3ccc(C)cc3[C@@H]2N2C(=O)c3ccc(C)cc3NC(=O)[C@@]12C	·	4	·	·	-4.4	·	2.5	-0.4
C=CCN1C(=O)C(CC(=O)O)SC1=Nc1ccc(N=Nc2ccccc2)cc1 (stereo not drawn)	5.6	-1	-4	13	-0.6	-9%	12	-0.8
COC(=O)/C(N=Nc1c(C)n(C)n(-c2ccccc2)c1=O)=C(\C)O	-2.5	-4	-6	0	-24	·	·	0.1
COc1ccccc1C(=O)NC(=S)Nc1ccc(NC(=O)c2ccco2)cc1	-2.5	1	6	?	1.9	0%	-2.1	0.5
Cc1cccc(CNC(=O)C2CCC(=O)N(C3CCCCCC3)C2)c1 (stereo not drawn)	4.1	-6	-5	-13	-7.0	·	0.7	2.7
COc1cc(Br)c(Br)c(Br)c1N	-3.7	2	-3	-2	1.6	-1%	-2.5	-0.9
Cc1nc2ccccc2c(=O)n1/N=C/c1cc(Br)ccc1O	1.7	38	-25	-5	4.8	-2%	18	-0.5
CC1CCN(C(=O)C2CCCN(c3ncnc4c3nc3n4CCCCC3)C2)CC1 (stereo not drawn)	-1.4	-1	2	21	1.4	·	-0.4	0.7
CC1(C)C(=O)Nc2ccccc2N1C(=O)COC(=O)Cc1ccc(Cl)c(Cl)c1	·	-5	·	·	-5.9	·	2.9	1.4
Cc1ccccc1C(=O)NC(=S)Nc1ccc(N2CCOCC2)cc1	-1.9	1	5	17	-5.0	2%	2.4	0.1

A second format for some results above:
canonical_smiles: Cc1nc2ccccc2c(=O)n1/N=C/c1cc(Br)ccc1O
  RanGTP-Impb inh = 1.7
  Beta apoptosis = 38
  T cruzi inh = -25
  Calb FLC = -5
  LANA-H2B inh = 4.8
  Vif TR-FRET = -2%
  AF4-AF9 inh = 18
  Bfl-1 A1 inh = -0.5
canonical_smiles: CC1CCN(C(=O)C2CCCN(c3ncnc4c3nc3n4CCCCC3)C2)CC1 (stereo not drawn)
  RanGTP-Impb inh = -1.4
  Beta apoptosis = -1
  T cruzi inh = 2
  Calb FLC = 21
  LANA-H2B inh = 1.4
  Vif TR-FRET = ·
  AF4-AF9 inh = -0.4
  Bfl-1 A1 inh = 0.7
canonical_smiles: CC1(C)C(=O)Nc2ccccc2N1C(=O)COC(=O)Cc1ccc(Cl)c(Cl)c1
  RanGTP-Impb inh = ·
  Beta apoptosis = -5
  T cruzi inh = ·
  Calb FLC = ·
  LANA-H2B inh = -5.9
  Vif TR-FRET = ·
  AF4-AF9 inh = 2.9
  Bfl-1 A1 inh = 1.4

Next part:
Compound	RanGTP-Impb inh	Beta apoptosis	T cruzi inh	Calb FLC	LANA-H2B inh	Vif TR-FRET	AF4-AF9 inh	Bfl-1 A1 inh
Cc1nc2ccccn2c1-c1ccnc(=S)[nH]1	0.6	·	-3	5	-1.1	-15%	-2.0	-0.4
CCN(CC)C(=O)CC(c1cc(OC)c(OC)c(OC)c1)c1c(OC)cc(OC)c2c(-c3ccccc3)cc(=O)oc12 (stereo not drawn)	4.0	-1	39	-5	4.9	·	·	-1.5
CCn1c(/C=C/c2ccc(O)cc2)nc2ccccc2c1=O	-2.0	3	-35	33	-5.7	-4%	-1.6	-0.3
Cc1ccc(CN2C(=O)CCC2C(=O)NCCN2CCOCC2)cc1 (stereo not drawn)	-0.8	-8	-15	3	4.5	1%	·	0.8
CCc1sc(NS(C)(=O)=O)nc1-c1ccccc1	0.9	3	-12	22	0.4	1%	·	0.3
COC(=O)c1c[nH]n2c(=O)cc(C)nc12	-4.4	-11	-1	32	-6.1	6%	-4.7	-0.1
COc1cccc(C(=O)NC(=S)Nc2ccc3c4c(cccc24)CC3)c1	6.7	0	-39	-2	-1.4	13%	·	-0.3
CCOc1ccc2nc(-c3ccccc3)[nH]c2c1	4.8	17	6	2	-3.1	-4%	·	-6.9
CC(=O)Nc1ccc(N(C(=O)c2cnccn2)C(C(=O)NC2CCCCC2)c2ccc(O)cc2)cc1 (stereo not drawn)	-3.6	-7	-13	-4	-3.2	6%	·	-0.5
Cc1noc(C)c1S(=O)(=O)Nc1ccc(C(=O)N2CCN(c3cccc(Cl)c3)CC2)cc1	8.8	1	-8	18	7.8	7%	·	-0.6
O=C(Nc1cccc2ccccc12)N1N=CCC1c1ccccc1 (stereo not drawn)	-1.9	-4	7	3	-2.0	·	-0.6	0.2
Cc1ccc(Oc2ccccc2)c(NC=O)c1	2.5	-2	-3	-12	-2.8	3%	·	0.3
CCOc1cc(/C=N/NC(=O)c2cc(C)n(-c3ccc(F)cc3)c2C)ccc1O	1.0	-5	-7	1	-0.7	·	-17	0.4
Cc1nnsc1C(=O)NCc1c(F)cccc1Cl	1.1	6	-11	10	-4.4	?	-0.5	-0.8
CC(C)CCN1CCN=C1Nc1ccccc1	-1.1	-9	1	-4	1.7	·	-4.2	0.2
CCS(=O)(=O)Nc1cccc(C2=NN(S(=O)(=O)CC)C(c3cccs3)C2)c1 (stereo not drawn)	-2.7	·	7	2	-1.1	·	0.7	0.0
CCCCNC(=O)NNC(=O)C1CC1(c1ccccc1)c1ccccc1 (stereo not drawn)	4.6	-3	-13	1	-0.8	0%	-5.0	0.0
COC(=O)c1cc2c(s1)-c1ccc(OC)cc1CC2	2.8	4	0	1	1.0	18%	3.5	-0.4
CCOC(=O)c1c(C)[nH]c(C(=O)OCC(=O)NC(C)C)c1C	-1.8	9	-5	-2	-38	5%	-7.8	-0.4
O=c1cc(CO)occ1OCc1cccc(F)c1	6.7	-12	-11	-3	2.3	-1%	·	0.7
CCOC(=O)[C@@H]1[C@H]2COc3ccc(Br)cc3[C@@H]2N2C(=O)N(c3cccc(F)c3)C(=O)[C@@]12C	3.1	-7	-13	22	-1.2	·	-2.8	0.3
Cc1nn(CCc2n[nH]c(=S)n2-c2ccc(F)cc2)c(C)c1[N+](=O)[O-]	1.4	-11	1	6	2.3	?	·	0.6
CCN(CC(=O)NCc1ccc(Cl)cc1)C(=O)CNS(=O)(=O)c1ccc(NC(C)=O)cc1	6.1	-2	-18	?	-1.0	·	-1.3	0.5
COc1ccc(NC(=S)N2CCC(NC(=O)c3ccc(F)cc3)CC2)cc1	-7.2	0	-7	-8	-0.6	·	0.4	0.3
CN(c1ccccc1)S(=O)(=O)c1ccc(NC(=S)NC(=O)C2CC2)cc1	?	1	7	1	3.7	7%	4.7	0.6
Cc1cccc(Nc2c(-c3ccc(O)cc3)nc3ncccn23)c1	?	0	-12	-12	-1.8	-3%	2.6	-3.2
Cc1ccc(C(=O)C2C(=O)c3ccccc3C2=O)cc1	0.6	0	-12	33	-1.6	3%	·	0.2
CC(NCc1ccc(F)cc1)C(=O)NC1CCCCC1 (stereo not drawn)	3.1	·	-13	6	-0.8	9%	-1.1	0.6
O=C(Oc1ccccc1)c1cccnc1Oc1ccccc1	-0.2	-5	-7	0	0.4	10%	-4.6	-1.4
COc1ccc(CCNS(=O)(=O)c2ccc3c(c2)NC(=O)CO3)cc1OC	2.2	-9	-4	1	6.4	·	1.0	1.4
CCCCc1c(O)nc(SCC(=O)N2CCOCC2)n(-c2ccc(OC)cc2)c1=O	1.9	-5	-41	0	-4.1	·	-2.2	0.3
Nc1nc2nn(-c3ccccc3)nc2c(=O)[nH]1	1.0	6	-3	3	-1.5	5%	-3.1	-7.6
Cc1nnc2n1N=C(c1ccc(OC(F)F)cc1)C(C)S2 (stereo not drawn)	-1.8	-1	-12	0	1.0	·	0.5	0.1
Cc1ccc(/C=C/c2nc3sc(C(=O)O)c(C)c3c(=O)[nH]2)cc1[N+](=O)[O-]	7.4	-5	-17	-4	-4.6	10%	2.3	1.0
O=C(Nc1ccccc1)c1cc(-n2cnnc2)ccc1Cl	1.7	-3	-2	1	-4.5	?	·	0.2
O=C(c1cnn(C(=O)c2ccccc2)c1)c1ccccc1O	4.5	3	-8	9	0.3	23%	·	-0.7
CCCCN(C(=O)COC(=O)c1ccccc1)c1c(N)n(CCC)c(=O)[nH]c1=O	·	0	·	·	-1.3	4%	-1.1	2.3
CC(=O)OCC(=O)Nc1c(C)cc(C)cc1C	-2.9	2	-13	-29	0.5	-4%	-1.4	-0.2
CNc1nc2c(-c3ccc(Cl)cc3)nnn2c2ccccc12	5.5	17	-35	-7	-3.0	-19%	-2.4	0.4
Cc1ccc(S(=O)(=O)N2CCN=C2SC(C)c2ccccc2)cc1 (stereo not drawn)	-3.1	-3	6	3	6.3	·	0.9	-0.5
CCOc1ccccc1OCC(=O)NNC(=O)Cn1cnc2c1c(=O)n(C)c(=O)n2C	3.2	-1	-1	42	-1.2	?	-9.3	0.6
COc1cc(CNC(C)(C)CO)cc(Br)c1OCc1ccc(Cl)cc1Cl	2.0	3	50	-1	-1.0	-8%	13	-0.1
COc1ccc(OCC(=O)O/N=C(\N)c2ccc(OC)cc2)cc1	3.5	·	10	-12	2.9	6%	0.1	0.0
Cc1c(Cl)cccc1NC(=S)N1CCc2ccccc2C1	0.2	-3	-22	-13	1.3	·	0.7	1.4
O=C(CNS(=O)(=O)c1ccc(F)cc1)N1CCN(c2ccc(F)cc2)CC1	0.0	·	6	3	10	-8%	·	-0.8
O=C(O)CCCNC(=O)Nc1ccccc1	0.5	-2	-7	3	2.4	-6%	0.5	0.5
COc1ccccc1NC(=O)c1ccc(NC(=O)COC(=O)c2ccc(O)cc2)cc1	·	2	·	·	-2.1	·	-0.4	1.0
Cc1nc2cc(C(=O)O)ccc2n1C1CCCCC1	2.2	0	-10	-5	-1.9	9%	8.5	-0.4
COc1cc(C2c3c(oc4c(C)cc(C)cc4c3=O)C(=O)N2Cc2cccnc2)ccc1O (stereo not drawn)	-7.8	5	4	-6	2.0	·	·	0.0
CCC(c1nnnn1Cc1ccccc1)N1CCN(C(=O)c2ccco2)CC1 (stereo not drawn)	1.5	-3	2	8	-0.6	3%	·	0.5
NS(=O)(=O)c1ccc(NC(=O)Nc2ccc(S(N)(=O)=O)cc2)cc1	2.2	-1	-11	0	3.4	-2%	-0.8	-0.4
Cc1ccsc1C(=O)N1CC(=O)Nc2ccccc21	-2.5	1	·	0	-1.8	4%	·	0.3

Source: PubChem (several laboratories)
